Vaccinia Venus: inhibitors of vaccinia virus (Venus reporter). Potency, µM (highest dose often 36.5 µM), for inactives: at the highest dose activity change, negative = inhibition, most hits filed as inhibitors. AID 720580. 330,000 tested, 0.46% active. Vaccinia virus Venus reporter expression, fluorescence; active means well fitted inhibition curve with a large enough effect; inconclusive means small, poorly fitted or top-dose-only effect; inactive means no such curve, though single readings can be large or run the other way; tested in A549 cells; note: nearly all actives have a fitted effect of over 30% in size; inactives centre near -10
VACV mCherry inh: vaccinia inhibition (mCherry reporter); Vaccinia virus mCherry reporter infection, fluorescence; about a quarter of the inactives have no number; Potency, µM (titrated, usually from 36.5 µM), for inactives: at the highest dose activity change, negative = inhibition, usual class: inhibitors; 310,000 tested, 0.63% active; AID 720579; active = well fitted inhibition curve with a large enough effect; inconclusive = small, poorly fitted or top-dose-only effect; inactive = no such curve, though single readings can be large or run the other way; tested in A549 cells; note: nearly all actives have a fitted effect of over 35% in size; inactives centre near -10
* hit, by the source's call; i = inactive; u = inconclusive; x = not tested or not shown; & = joins results of further samples; [ ] = another dose, or the depositor's remark. % is set by controls: 0 for no effect and ±100 for the full control effect; potency is the fitted concentration of half-maximal effect.

Molecule	Vaccinia Venus	VACV mCherry inh
COc1ccc(C2/C=C\CN(C(=O)c3ccc(C)cc3)[C@H](Cc3ccccc3)C(=O)N2Cc2ccc(F)cc2)cc1 (stereo not given in full)	u	i
O=C(O)Cc1ccc2ocnc2c1	-4%	-9%
CNC(=S)c1cc(C(C)(C)C)c(O)c(C(C)(C)C)c1	0%	u
O=C(CC1SC(=NCCc2ccccc2)N(/N=C/c2cccs2)C1=O)Nc1ccc(Cl)cc1 (stereo not given)	-20%	-29%
O=C(CNC(=O)c1ccc(F)cc1)N/N=C/c1cccnc1	5%	i
COC(=O)C1=C(C)N(Cc2ccco2)C(=O)/C1=C\c1ccc(N(C)C)cc1	9%	-13%
Nc1nc2c(Br)ccc(Br)c2cc1C(=O)NCc1cccc2ccccc12	-3%	-12%
CCc1ccc(CNC(=O)c2c3c(nc4ccccc24)C(=O)N(C2CCCCC2)C3)cc1	-23%	-11%
O=C(NCc1ccc2c(c1)CCN2C(=O)c1ccccc1)c1ccc(Br)o1	-16%	-18%
O=C(CSCc1cccc(CSCC(=O)Nc2ccccc2)n1)Nc1ccccc1	-14%	-17%
CC(C)Oc1ccc(C(=O)NC2(C(F)(F)F)NC(=O)N(CCCc3ccccc3)C2=O)cc1 (stereo not given)	u	-22%
COc1cccc(C(=O)Nc2ccc(N3CCCC3)cc2)c1	-29%	x
COc1cc(NC(=O)c2ccc(-c3ccc(Br)cc3)o2)ccc1NC(=O)C(C)C	-8%	x
CN(Cc1ccccc1)C(=O)c1[nH]c(C(F)(F)F)nc1-c1ccccc1	-7%	i
O=C1CCN(Cc2cccnc2)CCN1[C@H](CO)Cc1ccccc1	-8%&-5%	-13%

Following part
Molecule	Vaccinia Venus	VACV mCherry inh
O=C(Cn1cc(SCc2ccc(C(F)(F)F)cc2)c2ccccc21)N1CCOCC1	-20%	-19%
O=C(c1ccccc1)N1CCN(S(=O)(=O)N2CCCCCC2)CC1	-8%	-6%
C/C(=N\NC(=O)CNC(=O)c1ccncc1)c1ccc(C)cc1	-8%	4%
CC(=O)OC1C(N2CCCCC2)c2c(ccc(/C=C/C(=O)N3CCCCC3)c2O)OC1(C)C (stereo not given)	-9%	-3%
c1ccc(CN2CCOCC2)cc1	-20%	i
O=C(CN1CCCCC1)N1c2ccccc2CCc2ccccc21	-24%	x
Cc1ccc(CNC(=O)COC(=O)c2cccnc2Cl)cc1	-18%	i
O=S(=O)(N/N=C/c1ccc(Cl)cc1)c1ccc(Cc2ncc(C(F)(F)F)cc2Cl)s1	-12%	-13%
COC(=O)c1cc(OC)c(OC)cc1NC(=O)Nc1cccc(C(C)=O)c1	-10%	i
O=C1CN(C(=O)c2cccc(Br)c2)c2ccccc2N1	-25%	u
COc1cc2c(cc1OC)-c1cc(N3CCc4ccccc43)nc(=O)n1CC2	5%	-8%
CCCCNC(=O)C(Sc1ccccc1)c1ccccc1 (stereo not given)	0%	-1%
O[C@H]1C[C@H](c2ccc(Cl)cc2)N(Cc2cccs2)C[C@@H]1n1cc(C2CC2)nn1	u	u
O=C(CNS(=O)(=O)c1cccs1)N1CCN(c2cccc(C(F)(F)F)c2)CC1	-9%	-20%
COC(=O)c1cc(OC(=O)CCc2ccc(OC)c(OC)c2)cc(C(=O)OC)c1	2%	i

(listing goes on)
Molecule	Vaccinia Venus	VACV mCherry inh
COc1ccc(C(=O)Nc2ccc(-c3cc(C(F)(F)F)nn3-c3ccccc3)cc2)cc1OC	-25%	u
CN(C(=O)COC(=O)C1=COCCO1)c1c(N)n(Cc2ccccc2)c(=O)[nH]c1=O	-10%	-13%
CSCC[C@H](NC(=O)Nc1ccc(C)cc1)C(=O)O	-9%	-2%
Cc1ccc(C(=O)NC2CC(=O)N(c3ccc4c(c3)OCCO4)C2)cc1[N+](=O)[O-] (stereo not given)	-19%	-25%
NC(c1ccccc1)c1csc(Nc2cc(Oc3ccccc3)ncn2)n1 (stereo not given)	-21%	-24%
COc1ccc(C2CC(c3cccc(C(F)(F)F)c3)=NN2c2ccc(S(N)(=O)=O)cc2)cc1 (stereo not given)	u	u
Cc1ccc(S(=O)(=O)Nc2ccc(N3CCOCC3)nc2)cc1	-7%	6%
Cc1ccc(C(=O)Nc2nc3nc(C)cc(=O)n3[nH]2)cc1	-15%	-17%
Cc1ccc(S(=O)(=O)N2CC(O)C2)cc1	0%	i
Cc1ccc(CSCC(=O)NCc2ccco2)cc1	-9%	i
CC(=O)N/C(=C/c1ccc2c(c1)OCO2)C(=O)Nc1ccccc1	-7%	i
CCCC(c1nnnn1CCOC)N1CCN(c2cccc(OC)c2)CC1 (stereo not given)	-12%	x
CC(C)(C)C(=O)Nc1cccc(C(=O)Nc2cc(C(=O)O)cc(C(=O)O)c2)c1	-4%	-17%
COc1ccc(N2CCN(C(=O)CSc3nnc(NC(=O)C4CC4)s3)CC2)cc1	-1%	-14%
COc1cccc(C2CC(OCCF)=CC(=O)O2)c1 (stereo not given)	-16%	-3%

Record cards, as listed above.
Cc1ccc(S(=O)(=O)Nc2ccc(N3CCOCC3)nc2)cc1 reads Vaccinia Venus = -7%; VACV mCherry inh = 6%
Cc1ccc(C(=O)Nc2nc3nc(C)cc(=O)n3[nH]2)cc1 reads Vaccinia Venus = -15%; VACV mCherry inh = -17%
Cc1ccc(S(=O)(=O)N2CC(O)C2)cc1 reads Vaccinia Venus = 0%; VACV mCherry inh = i

Continued.
Molecule	Vaccinia Venus	VACV mCherry inh
COC(=O)c1ccccc1NC(=O)c1cc2nc(-c3ccc(OC)cc3)cc(C(F)(F)F)n2n1	-4%	6%
COc1cccc(-c2cnc(C(O)c3ccc(C)cc3C)[nH]2)c1 (stereo not given)	1%	i
CC(C)Nc1nnc(SCC(=O)Nc2ccc(F)cc2)s1	-10%	-18%
Cc1nc(-n2nc(C)c(Cc3ccc(Cl)cc3)c2C)sc1C(=O)N1CCCCC1C (stereo not given)	-23%	-9%
COC(=O)N1c2ccccc2CCc2ccccc21	-9%	-1%
CC1CCN(C(=O)CSc2nnc(CNC(=O)c3c(F)cccc3F)o2)CC1	-10%	i
C[C@]12CCC3c4ccc(O)cc4CCC3C1CCC2=O (stereo not given in full)	-4%	-5%
COc1ccc(/C=C/C(=O)NC(=S)NN2CCCCC2c2cccnc2)cc1OC (stereo not given)	-14%	-13%
COC(=O)c1ccc(C2C=C(c3ccc(Cl)cc3)Nc3nc4ccccc4n32)cc1 (stereo not given)	42%[activator]	-13%
Cc1ccc(OCC(=O)Nc2nnc(C3CCCO3)s2)c(Br)c1 (stereo not given)	-11%	i
N#CC1=C2SCN(c3ccccc3)CN2C(=O)CC1c1c(Cl)cccc1Cl (stereo not given)	-11%&7%	-11%&-34%
Cc1ccccc1OCCNc1cc(N2CCN(CCO)CC2)ccc1[N+](=O)[O-]	u	u
CSc1ncc(/C=C2/C(=O)NC(=O)N(C)C2=O)cn1	-8%	i
N#Cc1ccc(-c2ccc3nccn3c2)cc1	-12%	i
COc1cccc(C2SCC(=O)Nc3c2c(C)nn3-c2ccc(C)c(Cl)c2)c1OC (stereo not given)	3%	-13%

The list goes on:
Molecule	Vaccinia Venus	VACV mCherry inh
COc1cccc2c1C(CO)N1C(C#N)C3CC(C(=O)O)C(C1C2)N3C (stereo not given)	u	u
Cc1ccc(S(=O)(=O)N2[C@@H](c3ccccc3F)C(C(=O)O)=CC[C@H]2c2cccs2)cc1	0%	i
CC(C)c1nnc(SCc2ccc(CSc3nnc(C(C)C)n3N)cc2)n1N	-3%	x
CC1CCCCC1NC(=O)C1Cc2ccccc2CN1S(C)(=O)=O (stereo not given)	-17%	x
CCCCN(C=O)c1c(CC)nc2c(OCc3ccccc3C(=O)OC)cccn12	-10%	31%[activator]
NC(=O)OCC(COC(N)=O)c1ccccc1	-15%&-10%	-3%&-18%
O=C(NCc1ccccc1Cl)c1cnccn1	5%	x
COc1cc(F)ccc1-c1cc(C(=O)Nc2ccc(C)c(NS(C)(=O)=O)c2)[nH]n1	-7%	i
CC(C)NC(=O)N(C)C[C@@H]1Oc2cc(Br)ccc2S(=O)(=O)N([C@@H](C)CO)C[C@H]1C	-8%	i
O=S1(=O)CCO[C@H]2CCCC[C@@H]2N1Cc1cccc(F)c1	-16%	-24%
CC(=O)C1=C(c2ccc(F)cc2)N(C(C)=O)n2c(nnc2C2CCCCC2)S1	-26%	-25%
CCN1CCN(C(=O)CCc2nnc(CCc3ccc(OC)cc3)o2)[C@@H](C)C1=O	-16%	i
COc1ccc(Oc2c(C=O)c3ccccc3n2C)cc1	-21%	x
COc1ccc(N2CCN(C(=O)COC(=O)c3cc(S(=O)(=O)N(C)C)ccc3N3CCCC3)CC2)cc1	-13%	-19%
CCOC(=O)c1ccc(NC(=S)N2CCC(C(N)=O)CC2)cc1	-12%	-12%

The listing continues.
Molecule	Vaccinia Venus	VACV mCherry inh
O=C(NC(=S)Nc1ccc2[nH]c(=O)[nH]c2c1)c1cccc(F)c1	0%	-5%
O=C(OC1CCCC1)c1ccc(Cl)cc1Cl	-12%	i
COC(=O)c1cn(NC(=O)Cc2c(F)cccc2Cl)c(=O)c2ccccc12	1%	i
N#C/C(=C(/O)COC(=O)c1ccc(Cl)c(S(=O)(=O)N2CCOCC2)c1)c1nc2ccccc2[nH]1	-4%	-12%
COc1ccc(-c2nn(-c3cccc(F)c3)c3c2cnc2cc(OC)c(OC)cc23)cc1	-4%	3%
CCOc1cc(CNCc2cccs2)cc(Br)c1OCC	u	x
O=C(Nc1cccc(-c2nnc(-c3ccccc3)o2)c1)c1ccc(Br)o1	-15%	-9%
COc1cc(NC(=O)CSc2ncc3c(n2)-c2ccc(Cl)cc2N(Cc2ccccc2)S3(=O)=O)cc(OC)c1	2%	-5%
CCOC(=O)Nc1ccc(S(=O)(=O)N2CCC(c3nc4ccccc4[nH]3)CC2)cc1	-22%	-7%
O=C(c1cccc(F)c1F)N1CCCc2ccccc21	-22%	-2%
CC1(C)CC(=O)C2=C(C1)N(c1ccccc1)C(=O)CC2c1ccsc1 (stereo not given)	-3%	i
CCOc1ccc(C(=O)C2CCN(CC(=O)Nc3ccccc3N3CCOCC3)CC2)cc1	u	-18%
O=C1c2ccccc2C(c2nnnn2-c2ccc3c(c2)OCCO3)N1Cc1cccc(F)c1 (stereo not given)	-5%&-7%	-2%
COc1cccc(C=C2Cc3ccccc3C2=O)c1	-7%	6%
Cc1cc(=O)oc2c3c(ccc12)OCN(Cc1ccc(Cl)cc1)C3	-7%	-6%

Following part.
Molecule	Vaccinia Venus	VACV mCherry inh
Cc1cc(C)cc(OCC(=O)NNC(=O)CCC(=O)NCc2ccccc2)c1	-16%	i[1.46 µM]
O=c1[nH]c(-c2ccccc2O)nc2c1CCCC2	-8%	x
O=C(OCc1nc2ccccc2s1)c1cccc(N2C(=O)CCC2=O)c1	-6%	i
CCn1c(C)[n+](CCOCC[n+]2c(C)n(CC)c3cc(Cl)c(Cl)cc32)c2cc(Cl)c(Cl)cc21	-8%	-16%
Cc1ccc(NS(=O)(=O)c2ccc3[nH]c(=O)[nH]c3c2)c(C)c1	-14%	-10%
C[C@]12CC[C@H]3[C@@H](CCC4=CC(=O)CC[C@@H]43)[C@@H]1CC[C@@H]2O	-14%	-6%
O=[N+]([O-])c1ccc(Cl)c(Cl)c1	-8%	-12%
CC1=C(c2ccc(C)cc2)S(=O)(=O)NC1=NCCCN1CCN(c2cc(C)ccc2C)CC1	u	-29%
Cc1ccc(S(=O)(=O)N2CCN(C(=O)c3ccc(Cl)nc3)CC2)cc1	-7%	-4%
CCCN1CCc2nc(N3CCN(c4ncccn4)CC3)ncc2C1	-5%	-9%
CC[N+]1(CC(=O)c2ccc(Br)cc2)CCCCC1	-16%	-20%
CCOc1ccc(/C=N/Nc2nc(N3CCCC3)nc(N3CCCC3)n2)cc1OC	-9%	-11%
CCc1ccc(N2CC(C)Cn3c2nc2c3c(=O)[nH]c(=O)n2C)cc1 (stereo not given)	u	u
CN1CC(=O)NC1=N	16%	4%
CN(Cc1ccccc1)C(=O)CCC1CCN(S(=O)(=O)N(C)C)CC1	-16%	i

(continued)
Molecule	Vaccinia Venus	VACV mCherry inh
CC1NCCC2(O)CCCCC12 (stereo not given)	-15%	i
CCc1nnc(NC(=O)C2CCCN(S(=O)(=O)c3ccccc3)C2)s1 (stereo not given)	-16%	-1%
CCOc1cccc(C(=O)Nc2cc(-c3nn4c(C)nnc4s3)ccc2C)c1	-1%	-1%
CC(C)CCN1CCN(Cc2ccc3nsnc3c2)CC1CCO (stereo not given)	-4%	i
CCc1cccc(C)c1NC(=O)CO/N=C(\N)CC(=O)NC1CCCCC1	-11%	-2%
CCC(C)(c1nnnn1-c1c(C)cccc1C)N(N=O)c1cccc(C(F)(F)F)c1 (stereo not given)	-8%	-11%
COc1ccccc1-c1nc(C#N)c(NCc2ccc(F)cc2)o1	-27%	x
CN(C)CCNC(=O)c1cccc2[nH]c(-c3ccncc3)nc12	-22%	i
Cc1ccc(-c2nnc(SCC(=O)N3CCCC3)o2)cc1C	-60%	x
Cc1cc(C)n(CC(=O)Nc2ccc(F)c(F)c2)c(=O)c1C#N	-8%	7%
CCN1CCN(C(=O)CCc2nnc(CCCCc3ccccc3)o2)[C@@H](C)C1=O	-12%	-3%
